Compound activity (PubChem)
UUG fidelity: alters start codon recognition fidelity in yeast; S. cerevisiae UUG-firefly luciferase reporter, luminescence/redox ratio; activity score, % at 18.7 µM; hit rate 0.13% among 350,000;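 active means replicate mean at a twofold rise or more, about +100% in these data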;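 further: firefly luciferase made from a UUG start codon reports start codon fidelity; reporter light over untreated wells divided by growth signal over untreated wells; some hits fall short of that in this replicate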
eIF4H inh: inhibitors of RNA binding by human eIF4H | Q15056 | eIF4H fluorescence polarization binding assay | inhibition, % at 35 µM | hit rate 0.94% among 290,000 | AID 2012;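 active means 50% or more with normal probe brightness, or confirmed in later tests; inconclusive means above 50% with abnormal brightness, or retests that disagree; inactive means below 50% or failed in later tests; about a fifth of its hits are not listed in these tables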;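 further: calls also rest on retests at 20 µM and on dose response follow-up; 0% = protein and probe with vehicle and 100% = probe without protein; strong numbers were not always called active; many hits fall short of the cut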
MT1-MMP act inh: MT1-MMP (human) activation inhibition | P50281 | HT1080 RFP-PRO-GFP cells, GFP/RFP ratio fluorescence, overnight; percent of plate control window, DMSO zero | GFP/RFP ratio change, % at 20 µM | hit rate 0.061% among 360,000;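 active means GFP/RFP ratio change of at least 30% with cell ATP level not reduced by more than half and red fluorescence within 50% of control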; further: strong numbers were not always called active
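Read-out: GFP/RFP fluorescence ratio; Test system: RFP-PRO-GFP reporter HT1080 cells; Compound dosing: single-point 20 µM compound, 1% DMSO; Times: overnight compound exposure at 37 °C.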
CSC inhib: blocks cancer stem cells; cancer stem cell-like cells viability, luminescence; inhibition, % at 7.5 µM; hit rate 1.1% among 300,000; AID 2717;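 active means mean at 75% or more and at least half the replicates too; inconclusive means mean and replicates disagree; tested in HMLE shEcad cells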;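 further: 0% = median of negative and 100% = median of positive control wells; the first replicate is given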
Env fusion inh: inhibitors of HIV Env-mediated cell fusion; HeLa-JRFL Env/CEM21 cell fusion, luciferase; inhibition, % at 12.3 µM; hit rate 1.1% among 360,000;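 active means mean replicate inhibition score of at least 50 and every replicate individually at or above 50; inconclusive means only one of the two criteria met; inactive means mean below 50 and not all replicates reaching 50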;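 further: 0% = plate neutral controls and 100% = maraviroc near 300 nM; one replicate is shown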
PABP FP inh: PABP-poly(A) binding inhibition. P11940. PABP-poly(A) RNA binding, fluorescence polarization. inhibition, % at 35 µM. hit rate 1% among 290,000. AID 2014;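 active means 50% or more with normal probe brightness, or confirmed in later tests; inconclusive means above 50% with abnormal brightness, or retests that disagree; inactive means below 50% or failed in later tests; about a fifth of its hits are not listed in these tables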;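 further: calls also rest on retests at 20 µM and on dose response follow-up; controls were probe without protein and protein plus probe with vehicle; some compounds called inactive have numbers as strong as hits; many hits fall short of the cut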
Target sequence (P11940 whole entry, looked up): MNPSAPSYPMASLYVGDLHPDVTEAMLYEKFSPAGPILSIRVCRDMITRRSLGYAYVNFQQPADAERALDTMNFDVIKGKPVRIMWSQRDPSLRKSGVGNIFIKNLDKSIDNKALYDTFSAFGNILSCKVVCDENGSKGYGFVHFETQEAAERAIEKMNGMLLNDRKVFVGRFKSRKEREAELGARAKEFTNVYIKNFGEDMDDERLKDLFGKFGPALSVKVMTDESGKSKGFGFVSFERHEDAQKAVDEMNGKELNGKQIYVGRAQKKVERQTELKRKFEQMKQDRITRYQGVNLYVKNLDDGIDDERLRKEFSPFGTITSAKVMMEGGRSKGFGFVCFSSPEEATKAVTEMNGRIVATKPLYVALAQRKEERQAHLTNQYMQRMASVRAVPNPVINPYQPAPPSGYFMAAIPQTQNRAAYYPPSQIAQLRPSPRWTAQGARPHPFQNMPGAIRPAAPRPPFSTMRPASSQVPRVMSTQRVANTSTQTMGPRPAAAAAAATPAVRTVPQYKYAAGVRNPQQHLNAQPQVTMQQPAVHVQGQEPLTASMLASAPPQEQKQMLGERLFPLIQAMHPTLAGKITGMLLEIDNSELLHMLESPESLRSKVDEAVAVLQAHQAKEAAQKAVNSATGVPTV
Rce1 inh: blocks yeast Ras-converting enzyme | Q03530 | yeast membranes, quenched prenylated peptide cleavage fluorescence | calls only | hit rate 0.27% among 290,000 | AID 2563;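 active means fall in fluorescence gain of 50% or more versus controls, with final raw signal at or below 3038400; inconclusive means same 50% fall but final raw signal above 3038400; inactive means fall in fluorescence gain under 50%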;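 further: plate controls were neutral control wells for no effect and wells lacking membranes for full effect; tested at 10 µM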
Target sequence (Q03530 whole entry, looked up): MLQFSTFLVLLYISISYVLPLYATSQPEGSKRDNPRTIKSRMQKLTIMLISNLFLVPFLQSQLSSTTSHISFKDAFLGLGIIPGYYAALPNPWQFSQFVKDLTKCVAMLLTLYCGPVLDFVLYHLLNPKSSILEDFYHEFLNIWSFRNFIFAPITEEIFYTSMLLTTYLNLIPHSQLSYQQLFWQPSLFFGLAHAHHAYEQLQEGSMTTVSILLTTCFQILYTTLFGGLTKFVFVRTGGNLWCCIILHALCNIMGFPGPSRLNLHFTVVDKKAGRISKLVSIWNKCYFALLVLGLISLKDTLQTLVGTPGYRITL
eIF4H inh retest: recorded beside eIF4H inh, whose call it bears; inhibition, %; compound at 20 µM; confirmation average;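 mean of two retest wells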
PABP FP inh retest: also measured in PABP FP inh; calls as there; inhibition, %; compound at 20 µM; confirmation repeats;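 mean of two retest wells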
MT1-MMP act inh RFP: also measured in MT1-MMP act inh; calls as there; RFP signal change, %; measured here: RFP expression control read;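 0 = vehicle wells; hits needed this value within 50% of zero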
Numbers without * were called inactive; i = inactive; ? = inconclusive; / = no result given. No enrichment for hits (roughly 2.9% active in at least one column).

SMILES	UUG fidelity	eIF4H inh	MT1-MMP act inh	MT1-MMP act inh RFP	CSC inhib	Env fusion inh	PABP FP inh	Rce1 inh	others
COc1ccc(C(O)C(CC(=O)NCCCOC(C)C)C(=O)NCCCOC(C)C)cc1OC (stereo not given)	/	12	1	6	-8	19	2	i
COC(=O)Cc1n[nH]c(=O)c2ccccc12	-17	1	3	4	0	/	7	i
CC(C)(C)c1cc(CCC(=O)NNC(=O)c2ccco2)cc(C(C)(C)C)c1O	/	-1	1	-2	-3	-2	56	i	eIF4H inh retest=-3;PABP FP inh retest=10
S=c1[nH]nc(NCCc2ccccc2)s1	-24	-3	1	1	/	9	-2	i
Cc1cccc(C)c1N1C(=O)CC(Sc2ccccc2N)C1=O (stereo not given)	-21	/	0	1	/	30	/	/
COc1c(S(=O)(=O)N2CCN(c3ccc(F)cc3)CC2)ccc(Cl)c1Cl	-10	-2	2	-7	20	-19	0	i
CCCCn1c(SCC(N)=O)nc2ccc(N3CCOCC3)cc2c1=O	-16	17	1	0	51	-11	11	i
CC(C)CCn1c(S(=O)(=O)O)nc2ccccc21	-24	1	-1	4	0	/	-2	i
CC1(C)CC2CC(C)(CN2/C=C2/CCCCC2=O)C1 (stereo not given)	-2	3	1	6	0	17	12	i
COc1ccc(NC(=S)Nc2ccccc2F)c(OC)c1	-14	-3	4	5	8	/	-6	i
CC(C)(C)NC(=O)C(OC(=O)c1ccco1)c1ccc(Cl)cc1 (stereo not given)	-16	-14	-5	-5	-35	13	3	i
NC(=O)C1CCN(CC(=O)Nc2ccc3c(c2)OCCO3)CC1	-21	/	-2	3	-3	/	/	/
CCOc1cc(CNCCO)c(Cl)cc1OCC(=O)NCCc1ccccc1	-6	0	5	1	-13	-74	2	i
COc1ccc(CCn2c(C(C)C)nc3c(c(=O)c4ccccc4n3C)c2=O)cc1	/	-8	-3	-12	24	/	-6	i
CC(=O)N1C(=O)C(=C2C=C(C)OC(C)=C2)c2ccccc21	-20	?	8	-3	-10	-34	?	i
CCCc1[nH]nc2c1C(/C(C)=C/c1ccccc1)C(C#N)=C(N)O2 (stereo not given)	-10	-6	0	4	3	19	-5	i
CCN1CCC2(CC1)C(C#N)=C(N)Oc1c2sc2nc(C)cc(C)c12	-12	43	-54	17	-6	/	52	i	eIF4H inh retest=23;PABP FP inh retest=40
Cc1cccc(NC(=O)NCCc2c[nH]c3ccccc23)c1	-1	-3	9	-1	9	-110	-10	i
Cc1cccc(C(O)c2ncc(-c3ccccc3F)[nH]2)c1C (stereo not given)	6	/	6	-2	/	1	/	/
Cc1ccc(Cc2c(-c3ccc(Br)cc3)nc3ccc(Cl)cn23)cc1	-16	/	-11	-8	/	?	/	/
COCCN1C(=O)c2oc3ccccc3c(=O)c2C1c1cccc(O)c1 (stereo not given)	-4	-5	1	5	1	15	-4	i
Cc1nc2nc(SCC(=O)O)nn2c(C)c1Cc1c(F)cccc1Cl	/	8	7	3	-7	-24	-12	i
Cc1cc2c(cc1S(=O)(=O)Nc1c(C)cccc1C)n(C)c(=O)c(=O)n2C	0	-11	0	-1	-12	-5	-9	i
Cc1cn(-c2ccccc2)c(C)c1/C=N\Nc1nc(N2CCOCC2)nc(N2CCOCC2)n1	/	0	-6	-1	2	15	-3	i
O=C(NCc1cccnc1)C1c2ccccc2C(=O)N1C1CCCCCC1 (stereo not given)	-3	-9	0	-4	-3	/	-9	i
Remaining list, next part.
SMILES	UUG fidelity	eIF4H inh	MT1-MMP act inh	MT1-MMP act inh RFP	CSC inhib	Env fusion inh	PABP FP inh	Rce1 inh	others
COC1=CC(=Cc2c(N)n3nc(CC(=O)N4CCCCC4)sc3nc2=O)C=C(OC)C1=O	-16	?	7	50	-8	1	?	i
CC1CCCCC12NC(=O)N(CC(=O)OCC(=O)Nc1ccc(F)cc1[N+](=O)[O-])C2=O (stereo not given)	4	/	1	4	-15	3	/	/
Cc1cc(Br)ccc1SCC(=O)N1CCN(S(=O)(=O)c2ccccc2)CC1	-11	-4	-4	-3	-12	-2	11	i
O=S(=O)([O-])CCC[n+]1c(SCCCS(=O)(=O)O)sc2ccc(Cl)cc21	/	2	-6	0	-15	-12	-5	i
CCc1ccc(NC(=O)C2CCN(S(=O)(=O)c3ccc4c(c3)NC(=O)CO4)CC2)cc1	/	-8	7	-9	/	9	15	i
Cc1ccc(C(=O)NNC(=O)c2ccc(NS(=O)(=O)c3cccs3)cc2)s1	1	/	4	0	14	11	/	i
Cc1nn(Cc2ccccc2)c(=O)c2nn(-c3ccc(Cl)cc3)c(C)c12	/	-11	2	-4	-4	12	0	i
O=[N+]([O-])c1ccc(C2CCCC/C2=N/OCc2ccccc2F)c([N+](=O)[O-])c1 (stereo not given)	-5	-1	-8	-13	24	/	-2	i
COCCCN1C(=O)c2ccc(C(=O)Nc3ccc(OC)cc3OC)cc2C1=O	-4	-19	0	7	4	/	-2	i
N/C(=N\c1nc2ccccc2o1)NC(=O)C(Cc1ccccc1)N1C(=O)c2ccccc2C1=O (stereo not given)	-9	-2	-7	-15	-2	/	5	i
O=C(C1CCCN(Cc2cccs2)C1)N1CCCCCC1 (stereo not given)	-22	3	0	-1	/	/	4	i
O=C1Nc2ccc([N+](=O)[O-])cc2OC1CCN1CCCC1 (stereo not given)	-15	-9	-4	-1	-4	-6	69	i	eIF4H inh retest=4;PABP FP inh retest=1
C[C@]12C=CC(=O)C=C1CC[C@@H]1[C@@H]2C(=O)C[C@@]2(C)[C@H]1CC[C@]2(O)C(=O)COC(=O)CCC(=O)O	-14	-1	3	3	-10	-5	-4	i
c1ccc(-c2ccc(-c3[nH]ncc3CN3CCC(N4CCSCC4)CC3)cc2)cc1	-11	-1	1	2	-3	12	-2	/
c1nnc(NCNc2nncs2)s1	-15	/	1	4	/	-20	/	/
C=CCN=C(NC#N)SCCc1ccccc1	-11	-4	-2	-3	/	-31	-2	i
O=C(O)CN(c1ccccc1[N+](=O)[O-])S(=O)(=O)c1ccccc1	/	-1	-1	0	-5	9	-5	i
CSC1=C(C#N)C(c2ccccc2Cl)C2=C(N1)c1ccccc1C2=O (stereo not given)	-25	42	7	1	4	37	15	i
CN1c2ccccc2C2(C)CCCC3=Cc4cccc([N+](=O)[O-])c4OC312 (stereo not given)	2	2	4	-5	29	39	-4	i
Cc1ccccc1NC(=O)CN1C(=O)C2C3CC(C(Br)C3Br)C2C1=O (stereo not given)	/	3	4	5	2	49	-4	i
COCCCNc1ccn2nc(-c3cccc(OCc4ccccc4)c3)cc2n1	-10	/	3	-7	/	-7	/	/
COC(=O)c1c(NC(=O)C2c3ccccc3Oc3ccccc32)sc(C)c1C	-6	0	0	-5	25	/	-1	i
CCn1c(CNc2ccccc2Cl)nnc1SCC(=O)OC1CCCCC1	-28	-7	4	-4	-7	/	-5	i
CC(=O)NC(CC(=O)Nc1ccc(S(=O)(=O)NC2=NCCCCC2)cc1)c1ccccc1 (stereo not given)	-11	/	3	3	-12	/	/	/
CCN(C(=O)CSc1n[nH]c(-c2ccc(OC)cc2)n1)c1c(N)n(Cc2ccccc2)c(=O)[nH]c1=O	-15	/	-7	3	/	-8	/	/

Overlap with the part before: 5 entries; new compounds follow.
SMILES	UUG fidelity	eIF4H inh	MT1-MMP act inh	MT1-MMP act inh RFP	CSC inhib	Env fusion inh	PABP FP inh	Rce1 inh	others
COCCCNc1ccn2nc(-c3cccc(OCc4ccccc4)c3)cc2n1	-10	/	3	-7	/	-7	/	/
COC(=O)c1c(NC(=O)C2c3ccccc3Oc3ccccc32)sc(C)c1C	-6	0	0	-5	25	/	-1	i
CCn1c(CNc2ccccc2Cl)nnc1SCC(=O)OC1CCCCC1	-28	-7	4	-4	-7	/	-5	i
CC(=O)NC(CC(=O)Nc1ccc(S(=O)(=O)NC2=NCCCCC2)cc1)c1ccccc1 (stereo not given)	-11	/	3	3	-12	/	/	/
CCN(C(=O)CSc1n[nH]c(-c2ccc(OC)cc2)n1)c1c(N)n(Cc2ccccc2)c(=O)[nH]c1=O	-15	/	-7	3	/	-8	/	/
COC(=O)c1ccc(C(=O)OC)c(NC(=O)COC(=O)C2CCC(C(C)(C)C)CC2)c1 (stereo not given)	-12	2	-3	2	-1	32	0	i
Cc1cc(C)cc(NCc2ccncc2)c1	-11	-13	0	-1	-14	4	12	i
O=C(Cn1cnc2c(cnn2-c2ccccc2)c1=O)OCc1ccccc1	/	-5	2	-2	5	-29	4	i
COc1ccc(NC(=S)Nc2ccc(C)c(Cl)c2)cc1OC	-35	5	3	4	-13	10	-14	i
O=C(Nc1ccc(F)cc1)Nc1ccccc1F	-17	7	-6	-10	5	-4	4	i
CCOc1cc(Cl)c(NC(=O)c2ccco2)cc1OCC	-9	3	5	1	/	-51	-8	i
CCOC(=O)CSC1=C(C#N)C(c2ccccc2)C(C(C)=O)=C(C)N1 (stereo not given)	/	3	3	2	/	-45	5	i
CC1=C(C(=O)N(C)C)CC(CC(=O)NCCc2ccccn2)C(=O)N1Cc1ccc(C(C)(C)C)cc1 (stereo not given)	-16	/	4	4	/	22	/	/
CC(C)(C)C(=O)CSc1nc(N)cc(=O)[nH]1	-5	-5	2	6	-2	12	-10	i
Cc1nc(SCC(=O)Nc2ccccc2C(F)(F)F)c2c(=O)n(C)c(=O)n(C)c2n1	10	/	0	2	13	-13	/	/
COc1ccccc1CC(=O)NCCN1CCCCC1	-12	-6	2	3	0	-32	14	i
CCOc1ccc(CCNC(=O)COC(=O)c2ccc(OC(C)C)cc2)cc1OCC	5	/	1	4	2	-23	/	i
CCC(CC)C(=O)Nc1cc(Cl)ccc1C	/	3	/	/	-6	/	-3	i
CC(C)(C)OC(=O)N1CCC[C@@H]1CO	-10	/	4	-1	-12	/	/	/
COc1ccc2c(c1)CCCC21NC(=O)N(CC(=O)NC(=O)NCc2ccccc2)C1=O (stereo not given)	/	-1	2	1	0	-8	3	i
CN(C)/C=C1\C=C(c2ccccc2)OC1=O	-12	-4	-1	11	/	-72	-4	i
Cc1nc2ccccc2c2oc(C(=O)N3CCN(C4CCCCC4)CC3)cc12	-13	-3	/	/	21	14	-7	i
O=C(CN1CCN(C(=O)C2CCN(C(=O)/C=C/c3ccccc3)CC2)CC1)Nc1ccc(F)cc1	-21	/	5	-8	/	-293	/	/
COc1cccc2cc(C(C)N(CCCN3CCOCC3)C(=O)Nc3ccccc3)oc12 (stereo not given)	-10	-9	5	-1	/	/	-4	i
CC1=CCC2C(=O)N(c3cccc(C(=O)NCc4ccccc4)c3)C(=O)C2C1 (stereo not given)	-1	-2	0	-5	-5	30	-3	i
Cc1ccc(OCC(O)CN2CCN(c3ccccn3)CC2)c(C)c1 (stereo not given)	/	-4	-1	-2	-8	3	1	i
CCOC(=O)c1cn2nc(N3CCCC3)ccc2n1	/	1	0	-3	-10	-25	11	i
CSc1ccccc1NC(=O)CN(C)Cc1cccc(Cl)c1	/	-7	-4	-2	36	-12	-15	i
COc1ccc(S(=O)(=O)N2CCOCC2)cc1NC(=O)CC1CCCC1	-5	/	2	5	/	10	/	/
COc1ccc(CNC(=O)Cn2nnc3ccccc3c2=O)cc1	-16	-3	-3	0	-13	-15	-4	i
CCOc1ccccc1NC(=O)c1ccoc1C	-15	12	-1	-1	-2	-44	3	i
CCOc1ccc(OCC)c(NC(=O)C2COc3ccccc3O2)c1 (stereo not given)	-20	1	8	-4	-10	-13	-7	/
CCCN(CCC)C(=O)c1ccc2c(=O)n(Cc3ccco3)c(=S)[nH]c2c1	/	-3	1	-2	-17	-10	-2	i
Nc1nccc(-c2ccc(-n3cccc3)cc2)n1	2	1	-1	-1	-12	-22	7	i
